Vaccinia inh: blocks a specific stage of Vaccinia orthopoxvirus infection | Vaccinia-infected cells, mCherry/Venus stage reporter fluorescence; hits give low values; some inactives read as strong as hits | activity change (mCherry), % (concentration not given with the values) | 0.01% of 89,000 active | AID 1053133;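 active = mCherry past -33% and 40 or more points under the early reporter, replicates agreeing; inconclusive = past -33% without that gap or agreement; tested in A549 cells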;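 also: scaled between vehicle wells and reference inhibitor wells; 23 nL library stock went into each well; one replicate is shown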
Vaccinia inh Venus: also measured in Vaccinia inh; calls as there; activity change (Venus), %; measured here: Venus reporter, other viral stage;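 negative = less Venus signal; first of two replicates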
Numbers without * were called inactive; ? = inconclusive; · = not tested or not shown; & = joins results of further samples. Some of the compounds tested; count on the stated rates, not on these rows.

SMILES	Vaccinia inh	Vaccinia inh Venus
C[C@H](CO)N1C[C@H](C)[C@H](CN(C)Cc2ccc(C(F)(F)F)cc2)Oc2ccc(NS(=O)(=O)c3cccs3)cc2C1=O	-23.1	-22.7
C[C@H](O)C#Cc1cnc2c(c1)C(=O)N([C@@H](C)CO)C[C@@H](C)[C@H](CN(C)C(=O)CN(C)C)O2	14.5	11.9
C[C@H]1CCCCO[C@H](CN(C)S(=O)(=O)c2cn(C)cn2)[C@@H](C)CN([C@@H](C)CO)C(=O)c2cc(NC(=O)Nc3ccc4c(c3)OCO4)ccc2O1	-15.4	-17.8
CCCNC(=O)N1CC2(C1)[C@H](c1ccccc1)[C@H](CO)N2Cc1cccc(Cl)c1	-5.3	3.7
COc1ccccc1S(=O)(=O)N[C@H]1C=C[C@@H](CC(=O)NCc2cc(F)cc(F)c2)O[C@H]1CO	-13.2	-6.9
CCCNC(=O)N[C@H]1CC[C@@H](CCn2cc(C3CC3)nn2)O[C@@H]1CO	6.3	2.0
CCc1csc(N2[C@H](C#N)[C@@H](c3ccc(C4=CCCC4)cc3)[C@@H]2CO)n1	-11.4	-2.9
C[C@@H]1CN([C@H](C)CO)C(=O)c2cccc(NC(=O)CCCCCC(=O)Nc3ccccc3N)c2O[C@H]1CN(C)S(C)(=O)=O	-14.5	-20.0
C[C@@H]1CN([C@@H](C)CO)C(=O)c2cc(NC(=O)c3ccccc3)ccc2O[C@@H](C)CCCCO[C@H]1CN(C)S(=O)(=O)c1ccc(Cl)cc1	-10.9	-1.5
C[C@H]1CN([C@@H](C)CO)C(=O)Cc2cc(NS(=O)(=O)c3ccc(Cl)cc3)ccc2O[C@H]1CN(C)CC1CCCCC1	-34.0	-32.5
CN(C)C(=O)C[C@@H]1C=C[C@H](NC(=O)Nc2cccc(F)c2)[C@H](CO)O1	16.0	16.3
O=S(=O)(c1ccccc1F)N1CC[C@H]2[C@H](CO)Nc3ccc(-c4cccc(F)c4)cc3[C@H]21	-22.4	-17.3
O=C(c1cnccn1)N1CC[C@@H]2[C@@H](CO)Nc3ccc(-c4cccc(F)c4)cc3[C@@H]21	-10.3	-3.9
COc1ccc(CN(C)C[C@H]2OCCCC[C@H](C)Oc3ccc(NS(=O)(=O)c4ccc(Cl)cc4)cc3C(=O)N([C@@H](C)CO)C[C@H]2C)cc1	?	·
O=C1O[C@@H](c2ccccc2)[C@@H](c2ccccc2)N2[C@@H](c3ccccc3OCCO)[C@]3(C(=O)Nc4ccc(C#CCCO)cc43)[C@@H](C(=O)O)[C@H]12	-13.8	-6.8
C[C@@H]1CN([C@H](C)CO)C(=O)Cc2cc(NC(=O)CCCCCC(=O)Nc3ccccc3N)ccc2O[C@H]1CN(C)Cc1ccc(C(F)(F)F)cc1	-21.6	-21.5
O=C1CNC[C@@H]2[C@H](c3ccc(C4=CCCC4)cc3)[C@@H](CO)N12	10.6	8.5
COc1ccc(NC(=O)N2C[C@@H](O)COC[C@@H]3O[C@@H](CC(=O)NCc4ccccc4OC)CC[C@H]32)cc1	15.6	3.6
COc1ccc(CN2C[C@@H](O)COC[C@H]3O[C@@H](CC(=O)NCc4ccncn4)CC[C@@H]32)cc1	-0.5	7.1
CC=Cc1ccc2n(c1=O)C[C@@H]1[C@@H](CO)[C@H](C(=O)NC3CCC3)[C@H]2N1Cc1ccccc1 (mixture of isomers)	5.1	-0.9

Given comma-delimited: two of the compounds above.
Compound,Vaccinia inh,Vaccinia inh Venus
O=S(=O)(c1ccccc1F)N1CC[C@H]2[C@H](CO)Nc3ccc(-c4cccc(F)c4)cc3[C@H]21,-22.4,-17.3
O=C(c1cnccn1)N1CC[C@@H]2[C@@H](CO)Nc3ccc(-c4cccc(F)c4)cc3[C@@H]21,-10.3,-3.9

New compounds follow
SMILES	Vaccinia inh	Vaccinia inh Venus
CC(C)CC#Cc1ccc([C@H]2[C@@H](CO)N3C(=O)CN(C(=O)c4ccccn4)C[C@H]23)cc1	?	·
CCS(=O)(=O)NCC[C@H]1CC[C@H](NS(=O)(=O)c2ccccc2C)[C@H](CO)O1	-2.7	0.4
CCCNC(=O)N1CC2(CCN(C(=O)Nc3cccc(F)c3)CC2)c2c(n(C)c3cc(OC)ccc23)[C@@H]1CO	?	·
C[C@@H]1CN([C@@H](C)CO)S(=O)(=O)c2ccc(C3=CCCCC3)cc2O[C@H]1CN(C)C(=O)Cc1ccncc1	-25.6	-14.1
COc1ccc2c3c(n(C)c2c1)[C@@H](CO)N(Cc1ccc2c(c1)OCO2)CC31CCN(C)CC1	-22.8	-17.5
Cc1ccccc1-c1ccc([C@H]2[C@H](CO)N3CCCCN(C(=O)Nc4ccccc4)C[C@@H]23)cc1	?	·
C[C@@H]1CN([C@@H](C)CO)C(=O)c2cc(Br)cnc2O[C@H]1CN(C)Cc1cccc(F)c1	8.9&3.2	4.6&5.6
COc1ccc(S(=O)(=O)Nc2ccc3c(c2)C(=O)N([C@@H](C)CO)C[C@@H](C)[C@H](CN(C)C(=O)Nc2ccc(C(F)(F)F)cc2)O3)cc1	12.1	2.5
COc1ccc(CN(C)C[C@@H]2OCCCC[C@H](C)Oc3ccc(NC(=O)Nc4ccc(C(F)(F)F)cc4)cc3C(=O)N([C@@H](C)CO)C[C@@H]2C)cc1	?	·
CCC(=O)N1CC(=O)N2[C@H](C1)[C@H](c1ccc(C#CCC(C)C)cc1)[C@@H]2CO	?	·
Cc1ccc(S(=O)(=O)N(C)C[C@@H]2Oc3c(NC(=O)Nc4ccc5c(c4)OCO5)cccc3C(=O)N([C@H](C)CO)C[C@H]2C)cc1	5.8	-4.4
O=C(CC1CC1)N[C@@H]1CC[C@@H](CCNS(=O)(=O)c2ccc(F)cc2)O[C@H]1CO	-0.8	3.0
COc1ccc(S(=O)(=O)N(C)C[C@H]2Oc3c(NC(=O)Nc4ccc5c(c4)OCO5)cccc3C(=O)N([C@@H](C)CO)C[C@H]2C)cc1	12.0	19.8
C[C@@H]1CN([C@@H](C)CO)S(=O)(=O)c2ccc(-c3ccccc3F)cc2O[C@H]1CN(C)C	-29.4	-17.3
C[C@@H]1CN([C@H](C)CO)C(=O)c2cc(NC(=O)CCCN(C)C)ccc2O[C@@H](C)CCCCO[C@@H]1CN(C)S(=O)(=O)c1ccc(F)cc1	-1.9	-2.9
C[C@H](O)C#Cc1cnc2c(c1)C(=O)N([C@@H](C)CO)C[C@@H](C)[C@H](CN(C)C(=O)c1ccncc1)O2	29.6	18.4
C[C@H](CO)N1C[C@H](C)[C@@H](CN(C)C(=O)C2CC2)Oc2ncc(C#CC(C)(C)O)cc2C1=O	14.0	3.4
N#C[C@H]1[C@H](c2ccccc2C2=CCCCC2)[C@H](CO)N1C(=O)NC1CCCC1	-0.7	1.2
O=C(C[C@@H]1C=C[C@H](NC(=O)Nc2ccccc2F)[C@H](CO)O1)NCc1ccc(-c2ccccc2)cc1	?	·
N#C[C@@H]1[C@@H](c2ccccc2C2=CCCCC2)[C@H](CO)N1C(=O)Cc1ccncc1	-15.5	-7.3

Two of the compounds above, field by field.
C[C@@H]1CN([C@@H](C)CO)C(=O)c2cc(Br)cnc2O[C@H]1CN(C)Cc1cccc(F)c1
  Vaccinia inh = 8.9&3.2
  Vaccinia inh Venus = 4.6&5.6
N#C[C@@H]1[C@@H](c2ccccc2C2=CCCCC2)[C@H](CO)N1C(=O)Cc1ccncc1
  Vaccinia inh = -15.5
  Vaccinia inh Venus = -7.3

Single values from the results shown.
Vaccinia inh, `CCCNC(=O)N[C@H]1CC[C@@H](CCn2cc(C3CC3)nn2)O[C@@H]1CO` stands at 6.3
Vaccinia inh Venus, `N#C[C@@H]1[C@@H](c2ccccc2C2=CCCCC2)[C@H](CO)N1C(=O)Cc1ccncc1` stands at -7.3

(continued)
SMILES	Vaccinia inh	Vaccinia inh Venus
CNC[C@@H]1Oc2ncc(C#CC3(O)CCCC3)cc2C(=O)N([C@@H](C)CO)C[C@@H]1C	1.1	5.9
CCCN(C)C[C@@H]1Oc2ncc(Br)cc2C(=O)N([C@H](C)CO)C[C@@H]1C	1.2&-3.0	0.6&-3.3
CNC[C@@H]1Oc2cc(C#CCN(C)C)ccc2S(=O)(=O)N([C@H](C)CO)C[C@@H]1C	-1.4	3.6
COc1ccc(C#Cc2ccc3c(c2)[C@H]2[C@H](CCN2S(=O)(=O)c2ccccc2C)[C@@H](CO)N3C)cc1	1.2	-2.3
CCCN(C)C[C@@H]1OCCCC[C@@H](C)Oc2ccc(NS(C)(=O)=O)cc2C(=O)N([C@H](C)CO)C[C@H]1C	-10.2	7.6
C[C@H]1CCCCO[C@H](CN(C)C(=O)Nc2cccc3ccccc23)[C@@H](C)CN([C@@H](C)CO)C(=O)c2cc(NC(=O)Nc3ccc4c(c3)OCO4)ccc2O1	13.1	1.3
N#Cc1ccc(-c2ccc3c(c2)[C@H]2[C@H](CCN2C(=O)c2ccccc2F)[C@H](CO)N3)cc1	-6.2	4.8
O=C(Nc1ccc(Cl)cc1)N[C@H]1CC[C@H](CCn2cc(-c3ccccc3F)nn2)O[C@@H]1CO	0.8	3.0
CCC(=O)N(C)C[C@H]1Oc2cc(-c3ccc(C#N)cc3)ccc2S(=O)(=O)N([C@H](C)CO)C[C@@H]1C	17.3	7.3
C[C@@H]1CCCCO[C@H](CN(C)S(=O)(=O)c2cccs2)[C@@H](C)CN([C@H](C)CO)C(=O)c2cc(N(C)C)ccc2O1	-2.1	-0.8
CN(C)CC(=O)N[C@@H]1CC[C@H](CC(=O)O)O[C@@H]1CO	5.9	2.2
Cc1ccc(S(=O)(=O)N(C)C[C@H]2OCCCC[C@@H](C)Oc3ccc(NC(=O)Nc4ccc(F)cc4)cc3C(=O)N([C@@H](C)CO)C[C@@H]2C)cc1	-12.0	-1.3
CC(C)N(C[C@@H]1[C@H](c2ccccc2)[C@@H](CO)N1S(C)(=O)=O)C(=O)CN(C)C	19.2	9.2
CN(C)CC(=O)N1[C@@H](C#N)[C@@H](c2ccc(-c3ccc(C(=O)N(C)C)cc3)cc2)[C@@H]1CO	30.7	10.8
N#C[C@H]1[C@@H](c2ccc(C3=CCCC3)cc2)[C@H](CO)N1C(=O)NC1CCCC1	7.8	1.5
O=C(C[C@H]1CC[C@H]2[C@@H](COC[C@@H](O)CN2Cc2ccccc2)O1)NCc1ccccc1Cl	-13.8	-15.2
COc1ccc(NC(=O)N(C)C[C@H]2OCCCC[C@H](C)Oc3ccc(N(C)C)cc3C(=O)N([C@@H](C)CO)C[C@@H]2C)cc1	-0.9	5.5
COc1ccc(NC(=O)Nc2ccc3c(c2)C(=O)N([C@H](C)CO)C[C@H](C)[C@H](CN(C)C(=O)Nc2ccc(C(F)(F)F)cc2)O3)cc1	5.7	4.5
C[C@H](CO)N1C[C@H](C)[C@@H](CN(C)Cc2ccc(C(=O)O)cc2)Oc2ccc(NC(=O)Cc3ccccc3)cc2C1=O	26.4	10.4
O=C(C[C@@H]1CC[C@H]2[C@@H](COC[C@H](O)CN2Cc2cccc(F)c2)O1)NCC1CCCCC1	-24.0	-13.4
O=C(C[C@H]1CC[C@H](NC(=O)c2ccccn2)[C@H](CO)O1)NCc1cccc(F)c1	11.5	8.0
C[C@H](CO)N1C[C@H](C)[C@H](CN(C)S(=O)(=O)c2ccccc2)Oc2ccc(NC(=O)Nc3ccc4c(c3)OCO4)cc2CC1=O	-24.4	-18.5
CC(C)CC#Cc1cnc2c(c1)C(=O)N([C@@H](C)CO)C[C@@H](C)[C@H](CN(C)C(=O)Nc1cc(F)ccc1F)O2	-10.5	-9.5
C/C=C/c1ccc([C@@H]2[C@H](CO)N(Cc3ccccn3)[C@H]2CNC(C)=O)cc1	0.7	3.1
COc1ccccc1C(=O)N1C[C@@H]2[C@H](c3ccccc31)[C@@H](CO)N2C(=O)C1CCOCC1	-11.8	-3.5
COc1ccccc1CNC(=O)C[C@H]1CC[C@@H]2[C@H](COC[C@@H](O)CN2Cc2cccc(-c3ccncc3)c2)O1	-25.0	-19.2
COc1ccc(NC(=O)N(C)C[C@@H]2OCCCC[C@H](C)Oc3ccc(NC(=O)C4CCCCC4)cc3C(=O)N([C@H](C)CO)C[C@H]2C)cc1	-4.0	1.7
CS(=O)(=O)Nc1ccc2c(c1)[C@H]1C[C@@H](CC(=O)NCc3ccc(Cl)cc3)O[C@@H](CO)[C@H]1O2	-2.1	0.5
CCN1[C@@H]2c3ccc(-c4ccccc4OC)c(=O)n3C[C@@H]2[C@@H](CO)[C@@H]1C(=O)NCc1ccccc1	1.0	-3.6
Cc1ccccc1-c1ccc([C@H]2[C@H]3CN(C(=O)Nc4ccc(F)cc4)CC(=O)N3[C@H]2CO)cc1	10.5	1.3
Cc1noc(C)c1S(=O)(=O)N(C)C[C@@H]1Oc2ccc(NS(=O)(=O)c3ccccc3)cc2CC(=O)N([C@@H](C)CO)C[C@H]1C	4.4	16.8
C[C@@H]1CN([C@H](C)CO)C(=O)c2cc(NC(=O)NC3CCCCC3)ccc2O[C@@H](C)CCCCO[C@@H]1CN(C)S(=O)(=O)c1ccccc1	3.3	2.5
C[C@H](CO)N1C[C@H](C)[C@H](CN(C)CC2CC2)Oc2ccc(NC(=O)C3CC3)cc2CC1=O	6.2	5.6
COc1ccc(CN(C)C[C@@H]2Oc3c(NS(C)(=O)=O)cccc3C(=O)N([C@H](C)CO)C[C@@H]2C)cc1	14.5	14.5
Cc1cccc(-c2ccc([C@H]3[C@H](CO)N4CCCCN(S(=O)(=O)c5cn(C)cn5)C[C@@H]34)cc2)c1	9.1	-1.9
C[C@H](CO)N1C[C@H](C)[C@H](CN(C)C)Oc2c(NC(=O)Nc3cccc4ccccc34)cccc2C1=O	8.6	4.1
COCC#Cc1ccc2c(c1)O[C@@H](CN(C)C(=O)c1ccccc1F)[C@H](C)CN([C@@H](C)CO)S2(=O)=O	-0.2	4.5
C[C@@H]1CN([C@@H](C)CO)S(=O)(=O)c2ccc(C#CC3(O)CCCC3)cc2O[C@@H]1CN(C)C(=O)Nc1cccc(F)c1	-20.4	-18.7
CC1C=NC(S(=O)(=O)N2CC[C@H]3[C@@H](CO)N(C)c4ccc(C#Cc5ccccc5)cc4[C@H]32)=N1 (stereo partly drawn)	-0.4	7.5
O=C([C@@H]1[C@@H](CO)[C@@H]2Cn3c(ccc(-c4ccccc4F)c3=O)[C@H]1N2C(=O)C1CC1)N1CCCCC1	10.9	0.2
